Compound activity: PubChem, National Center for Advancing Translational Sciences (NCATS)
TRPV1 potentiator – HTS Assay for Compounds that Act as Potentiators of the Vanilloid Receptor 1 | AID 540277, 2011 | potentiation, % at 8.33 µM | 320,000 compounds, 0.02% hits | TRPV1-expressing cells, Fluo-8 calcium influx, capsaicin EC20 potentiation; host cell line not named in the record; control for the full effect not named in the record; active means potentiation above 80%; inconclusive means 30% to 80%; inactive means below 30%; note: 0% is about no effect
Target sequence (Q8NER1 whole entry, looked up): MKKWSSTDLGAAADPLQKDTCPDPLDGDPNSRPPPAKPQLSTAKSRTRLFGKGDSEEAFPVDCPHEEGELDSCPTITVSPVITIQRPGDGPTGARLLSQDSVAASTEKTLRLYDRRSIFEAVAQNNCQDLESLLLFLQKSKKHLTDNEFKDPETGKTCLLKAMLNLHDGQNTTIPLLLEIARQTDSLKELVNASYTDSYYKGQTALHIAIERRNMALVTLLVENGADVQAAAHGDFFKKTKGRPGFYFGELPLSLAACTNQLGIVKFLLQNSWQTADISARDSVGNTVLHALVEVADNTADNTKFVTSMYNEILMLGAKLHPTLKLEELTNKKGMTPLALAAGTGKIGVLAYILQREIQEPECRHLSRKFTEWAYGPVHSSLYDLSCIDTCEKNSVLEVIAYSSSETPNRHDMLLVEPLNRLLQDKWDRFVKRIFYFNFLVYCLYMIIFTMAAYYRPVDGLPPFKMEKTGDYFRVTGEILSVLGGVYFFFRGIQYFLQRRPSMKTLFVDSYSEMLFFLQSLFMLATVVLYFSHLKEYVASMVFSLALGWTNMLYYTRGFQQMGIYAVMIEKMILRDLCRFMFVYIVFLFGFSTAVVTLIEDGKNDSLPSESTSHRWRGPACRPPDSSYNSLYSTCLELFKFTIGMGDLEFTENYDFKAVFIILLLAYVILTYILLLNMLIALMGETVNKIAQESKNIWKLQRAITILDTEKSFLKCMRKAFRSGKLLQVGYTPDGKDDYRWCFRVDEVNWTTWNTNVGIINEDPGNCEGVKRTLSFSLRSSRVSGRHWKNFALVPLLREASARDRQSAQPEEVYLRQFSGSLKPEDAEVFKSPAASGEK
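Fluo-8 calcium influx in TRPV1-expressing cells, kinetic read (ex 480/em 520 nm). Compound added and read 3 min for agonist activity, followed by capsaicin at EC20 final and 2 min further read for enhancement.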
Sfp inh – qHTS Assay for Inhibitors of Bacillus subtilis Sfp phosphopantetheinyl transferase (PPTase). 4'-phosphopantetheinyl transferase ffp (Bacillus subtilis), Q9F4F7. Biochemical Sfp PPTase activity, qHTS. Potency, µM, for inactives: max response, negative = inhibition, usual class: inhibitors. 310,000 compounds, 3.5% hits. AID 1490, 2009; active = well fitted inhibition curve with a large enough effect; inconclusive = small, poorly fitted or top-dose-only effect, or another doubt; inactive = no such curve, though single readings can be large or run the other way;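 note: the enzyme is Sfp with the accession as filed and its product quenches rhodamine fluorescence; potency is the fitted concentration of half-maximal effect; 0% = enzyme reaction without inhibitor and -100% = no enzyme wells; top concentration of the series not given in the record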
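Buffer: 50 mM Hepes-Na pH 7.6, 10 mM MgCl2, 0.01% Nonidet P-40, 0.01% BSA. Enzyme 15 nM, pre-exposed to compound 15 min; substrates then added and fluorescence change tracked over 30 min.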
Menin MLL FP FL – qHTS Assay for Inhibitors Targeting the Menin-MLL Interaction in MLL Related Leukemias: Competition With Fluorescein Labeled MLL-derived Peptide; FP activity change, % at 61.4 µM; Fluorescence polarization, fluorescein-MLL peptide displacement from menin; 290,000 tested, under 10 active; inconclusive = falling polarisation curve, or a change in total fluorescence; inactive = total fluorescence flat and polarisation flat or rising; no compound was filed as active; the % refers to the polarisation; negative = inhibition;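 note: % of control where 0% means no effect; inhibitors lower the polarisation; unlabelled MLL peptide was the positive control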
D2 potentiator – Beta-Arrestin HTS for Positive Allosteric Modulators of the Human D2 Dopamine Receptor: Potentiators; 360,000 compounds, 0.23% hits; DiscoveRx D2 beta-arrestin cells, luminescence, 90 min; 100% = 57 uM dopamine signal; AID 624464, 2012; D(2) dopamine receptor (Homo sapiens), P14416; potentiation, % (test concentration not listed); active = potentiation of 50% or more; inconclusive = 30% to 50%; inactive = 30% or less;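 note: compound concentration not given in the record; tested on top of an EC20 dose of dopamine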
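PathHunter beta-arrestin assay in DiscoveRx D2 cells. Compounds were added with an EC20 of dopamine (50 nM final) for 90 min at 37 deg C. Luminescence was read 1 h after detection reagent, with 57 uM dopamine as the EC100 control.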
gsp ag – qHTS for Agonist of gsp, the Etiologic Mutation Responsible for Fibrous Dysplasia/McCune-Albright Syndrome: qHTS; gsp mutant cells, cAMP HTRF, 30 min; control for the full effect not named in the record; Potency, µM (highest dose often 76.9 µM), for the others: at the highest dose activation (cAMP increase), usual class: activators; 340,000 compounds, 0.13% hits; AID 624287, 2012; active = well fitted activation curve with a large enough effect; inconclusive = small, poorly fitted or top-dose-only effect, or another doubt; inactive = no such curve, though single readings can be large or run the other way; cell line not stated here;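 note: phosphodiesterase inhibitor Ro 20-1724 added with compounds to block cAMP breakdown; potency is the fitted concentration of half-maximal effect; nearly all actives have a fitted effect of over 60% in size; about a fifth of the inactives were tested at one dose only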
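Cells in DMEM/10% FBS with G418 were pretreated with compounds in DMSO plus […] (300 uM stock) for 30 min at 37C. cAMP was measured by HTRF (cAMP-d2 plus anti-cAMP antibody-K) after 30 min at room temperature.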
gsp antag – qHTS for Antagonists of gsp, the Etiologic Mutation Responsible for Fibrous Dysplasia/McCune-Albright Syndrome: qHTS; gsp-mutant cells, cAMP HTRF, 30 min; control for the full effect not named in the record; Potency, µM (doses to about 76.9 µM), inactives show at the highest dose activity change, negative = inhibition, usual class: inhibitors; 340,000 compounds, 0.4% hits; AID 624288, 2012; active = falling curve of any shape with a large fitted effect; inconclusive = falling curve, mostly with a smaller effect; inactive = flat or rising curve; cell line not stated here;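 note: intracellular cAMP measured with PDE inhibitor Ro 20-1724 present during compound exposure; potency is the fitted concentration of half-maximal effect; % is set by controls: 0 for no effect and ±100 for the full control effect; nearly all actives have a fitted effect of over 65% in size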
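Cells, 2000/well, grown 16–24 h in DMEM 10% FBS with 0.5 mg/ml G418, then compounds plus […] (300 uM addition stock), 30 min at 37C. cAMP read by HTRF (cAMP-d2 and anti-cAMP antibody-K in lysis buffer) after 30 min RT.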
ClpP mod – qHTS Assay for Activators of ClpP; ATP-dependent Clp protease proteolytic subunit (Bacillus subtilis (strain 168)), P80244; purified B. subtilis ClpP, FRET peptide cleavage, 20 min; Potency, µM (highest dose often 57.5 µM), without a hit: at the top dose activity change, negative = active; 340,000 compounds, 1.9% hits; active = well fitted falling curve with a large enough effect; inconclusive = small, poorly fitted or top-dose-only effect; inactive = no such curve, though single readings can be large or run the other way; note: potency is the fitted concentration of half-maximal effect; the source files actives as falling curves though it sought activators and does not explain the sign; nearly all actives have a fitted effect of over 65% in size; many hits overshoot -100%
Target sequence (P80244 whole entry, looked up): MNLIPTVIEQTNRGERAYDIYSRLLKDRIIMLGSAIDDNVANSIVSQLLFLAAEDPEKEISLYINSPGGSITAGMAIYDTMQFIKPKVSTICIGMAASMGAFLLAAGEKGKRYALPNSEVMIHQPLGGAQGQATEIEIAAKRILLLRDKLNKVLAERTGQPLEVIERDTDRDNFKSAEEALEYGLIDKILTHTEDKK
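FRET quenching reversal measured ClpP activation: 10 microg/mL B. subtilis ClpP at pH 8 with the FRET-FV decapeptide, read at 430 nm after 320 nm excitation. The 20-min minus 0-min signal was scaled between DMSO/no-enzyme wells and ADEP (5.8 microM final).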
An asterisk follows results filed as active; ? = inconclusive; . = not tested or not shown; & = joins results of further samples; [ ] = remark or other dose.

SMILES	TRPV1 potentiator	Sfp inh	Menin MLL FP FL	D2 potentiator	gsp ag	gsp antag	ClpP mod
COc1cccc(-n2cnc3sc(C)cc3c2=O)c1	5	26%	-0.6	-6	21%[15.4 µM]	11%	.
CCN(CC)C(=O)C1=C(C)N(CCCN2CCCC2=O)C(=O)C(CC(=O)NCCCCc2ccccc2)C1 (stereo unspecified)	.	.	.	-2	?	.	0.3%
O=C1NC(=O)C(Cc2ccc(O)cc2)N1 (stereo unspecified)	.	.	.	7	.	12%	-0.5%
COc1ccccc1CNC(=O)COC(=O)C1CCN(S(=O)(=O)c2c(Cl)cccc2Cl)CC1	.	.	.	1	?	-33%	-0.1%
Cn1c(N)c(C(=O)COC(=O)c2ccc([N+](=O)[O-])o2)c(=O)n(C)c1=O	4	-7%	-0.4	2	21%[15.4 µM]	8%	.
CCOC(=O)C1=C(O)C(=O)NC(c2ccccc2)=C(OC2CCCCC2)C1	9	-2%	1.4	-13	-10%[15.4 µM]	-3%	0.5%
COc1cc(CCCN2C(=S)NC[C@@H]2c2ccccc2)cc(OC)c1OC	-17	6%	-1.7	-7	18%	-5%	-0.8%
NC(=O)C1CCCN(C(=S)Nc2cccc3ccccc23)C1 (stereo unspecified)	0	0%	0.3	1	9%[15.4 µM]	-11%	0.3%
COc1ccc(-c2c[n+]3c(n2-c2c(C)n(C)n(-c4ccccc4)c2=O)CCCCC3)cc1	5	20%	4.6	-8	-2%[15.4 µM]	12%	.
Cc1onc(-c2ccccc2Cl)c1C(=O)Nc1ccccc1C(N)=O	29	11%	2.7	2	0%	-9%	-4.9%
Cc1ccc(-c2nn(-c3ccccc3)cc2C(=O)N2CCOCC2)cc1C	-15	9%	0.7	-11	6%	5%	.
O=C(c1ccc(Cl)cc1)N1CCN(C(=O)c2ccco2)CC1	?	2%	0.1	-2	-25%	3%	1.4%
O=C(COc1ccc(/C=N/NC(=O)c2ccc(O)cc2)cc1)Nc1cccc([N+](=O)[O-])c1	0	-26%	1.8	2	-28%	-5%	0.8%
CCOC(=O)N/N=C/c1ccc(N(CC)CC)cc1O	22	-17%	.	-17	2%	8%	-17%
COc1cccc(C(=O)OCC(=O)NCC2CCCO2)c1 (stereo unspecified)	.	.	.	-3	-12%	9%	-12%
C=C1CCN(C(Cc2ccccc2)C(=O)OC)S(=O)(=O)c2ccc(F)cc21 (stereo unspecified)	12	5%&4%	4.8&-1.2	-17	.	4%	0.2%
COc1ccc2cc(CN(CC3CCCO3)S(=O)(=O)c3ccccc3Cl)c(=O)[nH]c2c1 (stereo unspecified)	11	0%	-0.2	5	-12%	-22%	-18%
CCN(CC1CCCN(CCc2cccc(OC)c2)C1)C(=O)c1ccoc1 (stereo unspecified)	8	16%	4.4	-31	-2%	4%	-0.3%
CCN1CCN(S(=O)(=O)c2c[nH]c(C(=O)OC)c2)CC1	-7	2%	-0.2	-5	5%	8%	-0.4%
Cc1cccc(Cn2c(SCCO)nc3c2c(=O)n(C)c(=O)n3C)c1	2	5%	-0.8	-4	16%	8%	2.8%
O=C(c1ccc(O)cc1)c1ccc(O)cc1O	8	14%	-18	8	-7%[15.4 µM]	-23%	.
COc1ccccc1-c1noc2ncnc(Nc3ccccc3C)c12	11	-7%	0.8	-4	.	-7%	-7.8%
Cc1ccc(S(=O)(=O)N2CCN(C(=O)c3ccccn3)CC2)c(C)c1	-7	15%	5.0	-8	?	-2%	1.2%
COc1ccccc1NC(=O)c1ccc(Cl)c(S(=O)(=O)N2CCCCC2)c1	-5	4%	.	-4	-8%	-3%	-5.7%
Nc1nonc1C(=O)N/N=C/c1ccncc1	-13	11%	0.6	-1	-11%[15.4 µM]	2%	.
Additional compounds follow.
SMILES	TRPV1 potentiator	Sfp inh	Menin MLL FP FL	D2 potentiator	gsp ag	gsp antag	ClpP mod
CSCCC(NC(N)=O)C(=O)Nc1ccc2ccccc2c1 (stereo unspecified)	4	10%	-0.9	-9	-23%	5%	.
CCCCn1c(=O)n(C)c(=O)c2c3c(sc21)COC(C)(C)C3	12	3%	-4.6	-5	27%	-9%	28µM*
CCSc1ccccc1C(=O)Nc1cccnc1	0	4%	1.2	-1	?	12%	-5.6%
Nc1cc(=O)[nH]c(SCC(=O)Nc2cc(S(=O)(=O)N3CCCCCC3)ccc2Cl)n1	.	.	.	-21	1%[15.4 µM]	6%	-3.9%
COc1ccc(/C=C/C(=O)NC(=S)N2CCN(C)CC2)cc1	8	-19%	0.3	-7	4%[15.4 µM]	6%	.
CCOC(=O)c1cn2nc(Oc3ccccc3)ccc2n1	-2	14%	3.6	-2	?	2%	.
CN1c2ccccc2C(=O)/C(=C\Nc2ccc(F)cc2)S1(=O)=O	15	11%	6.7	1	12%	8%	.
O=C(NCc1ccc2c(c1)CCO2)Nc1cccc(C(F)(F)F)c1	-8	18%	0.3	-14	-3%	-5%	.
COc1ccccc1NS(=O)(=O)c1cccc(NC(=O)c2nn(C)c(=O)c3ccccc23)c1	18	.	.	3	?	-36%	-0.8%
Cc1ccc(NC2=C(Cl)C(=O)OC2OC(=O)c2ccco2)cc1C (stereo unspecified)	13	-15%	5.7	-11	18%	3%	-1.0%
O=C(O)CSc1c2c(nc3cc(C(=O)Nc4ccc(F)c(Cl)c4)ccc13)CCCC2	4	-13%	.	-6	?	4%	0.3%
C=CC[n+]1c(-c2ccc(Cl)cc2Cl)csc1Nc1c(C)n(C)n(-c2ccccc2)c1=O	5	-27%	-4.2	-28	2%	?	.
c1ccc(C(c2nnnn2Cc2ccco2)N2CCN(C3CCCC3)CC2)cc1 (stereo unspecified)	-6	?	0.2	-9	-34%[inhibitor]	-6%	-0.7%
CCCCn1c(SCC(=O)NC2CC(C)(C)NC(C)(C)C2)nc2cc(S(N)(=O)=O)ccc21	5	12%	-1.2	-4	-11%	1%	-0.6%
O=C1c2ccccc2C(=O)N1CCc1csc(-c2ccc(F)cc2)n1	-14	-10%	-3.4	-20	3%	?	1.4%
Cn1nccc1C(=O)Nc1ccn(C23CC4CC(CC(C4)C2)C3)n1	-17	-3%	1.5	4	0%	-17%	-4.2%
O=C(NCC(F)(F)F)Nc1cccnc1	-19	21%	1.5	0	-25%	12%	?
O=C(NCCc1nc(-c2ccccc2Cl)no1)C1CCCCC1	.	.	.	0	.	18%	0.6%
CCOc1ccc(N(CC(=O)N2CCc3ccccc32)S(=O)(=O)c2c(C)noc2C)cc1	.	28%	0.4	3	44%	-2%	-1.5%
COc1ccc(N(CC(=O)NCc2ccco2)S(C)(=O)=O)cc1OC	1	11%	1.4	-7	-24%	5%	1.6%
CCOc1ccc(NC(=O)CN(C)C(=O)c2ccccc2-n2cnnn2)cc1OCC	-3	.	.	-15	-6%[15.4 µM]	10%	.
Cc1ccc(/C=C2\CCn3c2nc2cc(C(=O)O)ccc2c3=O)c(C)c1	-2	13%	3.2	-4	-4%	?	.
CN(c1ccccc1)S(=O)(=O)c1ccc(NC(=O)c2ccccc2C(=O)O)cc1	.	.	.	-11	7%	10%	.
O=C(C[C@H]1C/C=C\CC[C@@H](Cc2ccc(F)cc2)C(=O)OC[C@H]2CCCN2C1=O)NCCO	.	.	.	-6	?	10%	2.7%
COC(=O)c1ccccc1S(=O)(=O)NC(=O)c1ccccc1	5	6%	-1.0	-4	3%	6%	20µM*
(list continues)
SMILES	TRPV1 potentiator	Sfp inh	Menin MLL FP FL	D2 potentiator	gsp ag	gsp antag	ClpP mod
CCCCCCC1CC(CCc2nc(=S)[nH][nH]2)C(=O)O1 (stereo unspecified)	-7	-29%	1.0	27	-3%[15.4 µM]	4%	1.6%
COc1cccc(-c2cc(C(=O)Nc3cccnc3Cl)no2)c1	4	-5%	8.1	-10	5%[15.4 µM]	3%	-3.4%&-17%
CCOc1ccc(-c2cc(NC(=O)c3c(F)cccc3F)c(C(=O)O)s2)cc1	7	-6%	?	-1	-17%	?	.
C/C(=N\NC(=O)C1CC1)c1ccccc1O	1	-6%	-0.1	-13	11%[15.4 µM]	1%	.
COc1ccc(N2C(=O)CC(N3CCC(c4nc5ccccc5[nH]4)CC3)C2=O)cc1 (stereo unspecified)	-1	-2%	2.8	13	-14%	-25%	-0.3%
CSc1sc(-c2n[nH]c(=S)n2C)c2c1C=CCC2	-5	50µM*	9.2	-1	2%[15.4 µM]	-37%	0.8%
O=C(NC(Cc1ccccc1)C(=O)O)/C(=C/c1cccc([N+](=O)[O-])c1)NC(=O)c1cccc(Br)c1 (stereo unspecified)	4	31%[activator]	1.1	-7	-28%	1%	.
Cc1oc2c(C)c3oc(=O)c(CCC(=O)NCCCN4CCCC4=O)c(C)c3cc2c1C	-2	10%	0.0	-31	.	1%	?
Cc1ccc(NC(=O)c2cccc(OCc3c(C)noc3C)c2)cc1S(=O)(=O)Nc1ccccc1Cl	10	11%	2.5	0	17%	-9%	-11%
Cc1nc2nc[nH]n2c(=O)c1CC(=O)O	4	18%	0.7	-11	-12%	-1%	-8.6%
CC(C)CNS(=O)(=O)c1ccc(S(=O)(=O)N2CCC(N3CCCCC3)CC2)cc1	-10	2%	-5.3	-3	-5%[15.4 µM]	-8%	.
O=C(N=Nc1c(O)[nH]c2ccccc12)Nc1ccccc1	.	.	.	-33	?	-14%	0.9%
Cc1noc(NS(=O)(=O)c2ccc(NC(=O)COc3ccc(Cl)cc3Cl)cc2)c1C	21	11%	-2.5	0	5%	-20%	1.1%
